Screening results deposited in PubChem by National Center for Advancing Translational Sciences (NCATS).
Rango release inh: inhibitors of RanGTP-induced Rango-importin beta complex dissociation; Biochemical FRET Rango-importin beta, RanGTP-induced dissociation; Potency, µM (highest dose often 46.1 µM), without a hit: at the highest dose activity change, negative = inhibition; 0.071% of 340,000 active; AID 540253; active means falling FRET ratio curve, often poorly fitted, with flat reads before Ran was added; inconclusive means other falling curves, or compound fluorescence or quenching; inactive means flat or rising ratio curve;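 note: potency is the fitted concentration of half-maximal effect; % of control where 0% means no effect; nearly all actives have a fitted effect of over 45% in size; -100% = wells without RanGTP and RCC1; the record marks most hits as doubtful in a second field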
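Rango/importin beta premix (0.1/0.25 uM final), PBS + 1 mM DTT + 0.02% Tween-20 + 0.1% BSA; cpd 5 min RT; FRET pre-read; + RanGTP-RCC1 (0.6 uM Ran, 2 mM GTP, 0.2 uM RCC1); 45 min RT; FRET post-read, ex 430, em 486/530 nm.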
miR-21 reporter: miR-21 reporter, rising signal; Potency, µM (doses to about 38.3 µM), without a hit: at the highest dose reporter change, positive = more light; HeLa miR-21 FLuc reporter, luciferase, 48 h; 340,000 tested, under 10 active; active = well fitted rising curve with a large enough effect; inconclusive = small, poorly fitted or top-dose-only effect; inactive = no such curve, though single readings can be large or run the other way;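 note: % of control where 0% means no effect; miR-21 action dims this reporter so a rising signal means less miR-21 action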
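HeLa miR-21-FLuc reporter line, endogenous miR-21; 2000 cells/well in DMEM/10% FBS; compound titration up to ~40uM final, 48 h, 37 degree Celsius; luciferase detection reagent, 15 min lysis, CCD luminescence.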
Rango-impB inh: inhibitors of Rango-importin beta complex formation. AID 540263. Potency, µM (series often up to 92.2 µM), inactives show top-dose inhibition of complex formation. Rango CFP/YFP FRET sensor + importin beta, 45 min. 0.031% of 340,000 active; active = rising FRET ratio curve, often small or poorly fitted; inconclusive = mostly compound fluorescence or quenching in the first reads; inactive = flat curves in all reads;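 note: potency is the fitted concentration of half-maximal effect; 0% = DMSO wells and 100% = buffer wells lacking importin beta; nearly all actives have a fitted effect of over 15% in size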
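Inhibition scored from the CFP 486 nm/YFP 530 nm FRET ratio 45 min after adding 0.125 microM importin beta to 50 nM Rango biosensor preincubated 5 min with compound (room temperature, PBS with DTT, Tween-20, BSA). No-importin wells as positive control.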
GLA inh pH 4.5: alpha-galactosidase A (human) inhibition, pH 4.5; P06280; purified enzyme, 4-MU-alpha-Gal fluorescence, pH 4.5; activity change, negative = inhibition, % at 105 µM; 230,000 tested, under 10 active; inconclusive = small, poorly fitted or top-dose-only inhibition, or a rising curve; inactive = flat fitted curve, though single readings scatter; no compound was filed as active;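 note: 0% = full activity with enzyme and -100% = basal without enzyme; dose as in the result columns while the protocol names 77 µM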
Target sequence (P06280 whole entry, looked up): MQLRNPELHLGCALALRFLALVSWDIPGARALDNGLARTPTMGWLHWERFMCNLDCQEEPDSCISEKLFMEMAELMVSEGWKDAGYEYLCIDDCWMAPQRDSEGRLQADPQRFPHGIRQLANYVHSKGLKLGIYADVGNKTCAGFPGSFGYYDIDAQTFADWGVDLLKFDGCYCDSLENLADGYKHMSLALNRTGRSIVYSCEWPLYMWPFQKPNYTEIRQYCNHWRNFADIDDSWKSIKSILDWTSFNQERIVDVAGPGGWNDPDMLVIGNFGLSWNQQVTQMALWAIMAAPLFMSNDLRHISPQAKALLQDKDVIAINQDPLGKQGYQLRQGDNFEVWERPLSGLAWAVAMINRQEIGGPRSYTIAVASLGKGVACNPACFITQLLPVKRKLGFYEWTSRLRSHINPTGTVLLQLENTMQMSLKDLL
Numbers without * were called inactive; ? = inconclusive; nt = no result given; & = joins results of further samples. Only part of the results is shown; the hit share may differ from the screen's.

Rango release inh	SMILES	miR-21 reporter	Rango-impB inh	GLA inh pH 4.5
2%	CCN1CCCC1CNS(=O)(=O)c1ccc(C(=O)Nc2ccccc2)cc1 (stereo not given)	1%	13%	1
-11%	CCOCCCn1cnc2c(c1=O)c1nc3ccccc3nc1n2-c1ccc(C)cc1	2%	-0.4%	-1
-1%	CC(=O)NC(c1cc(Cl)c2cccnc2c1O)C(C)C (stereo not given)	nt	-0.5%	nt
0%	Cc1ccc2nc(N/C(=N/S(=O)(=O)c3cccs3)c3ccccc3Cl)sc2c1	-4%	-0.3%	0
-4%	CCOc1ccc(C(C)C)cc1S(=O)(=O)N1CCOCC1	-5%	0.9%	-3
25%	CC1(C)CC(=O)C2=C(C1)NC1=C(C(=O)c3ccccc31)C2c1ccc(Cl)cc1 (stereo not given)	?	0.0%	-3
-7%	Cc1nc(NC(=O)/C=C/c2ccccc2)n[nH]1	0%	0.5%	9
6%	O=C1c2ccccc2C(=O)N1CCc1csc(NNc2nc(CCN3C(=O)c4ccccc4C3=O)cs2)n1	0%	-5.0%	-10
-6%	S=C(c1ccc(-c2ccc(Cl)cc2Cl)o1)N1CCCCC1	-54%	1.6%	-5
3%	Cc1c(C(=O)N2CCCCC2)c(S(=O)(=O)N2c3ccccc3CC2C)c(C)n1C (stereo not given)	0%	0.0%	nt

An excerpt from above in order of their number in miR-21 reporter, rising:
Rango release inh	SMILES	miR-21 reporter	Rango-impB inh	GLA inh pH 4.5
-4%	CCOc1ccc(C(C)C)cc1S(=O)(=O)N1CCOCC1	-5%	0.9%	-3
6%	O=C1c2ccccc2C(=O)N1CCc1csc(NNc2nc(CCN3C(=O)c4ccccc4C3=O)cs2)n1	0%	-5.0%	-10
-11%	CCOCCCn1cnc2c(c1=O)c1nc3ccccc3nc1n2-c1ccc(C)cc1	2%	-0.4%	-1

More entries
Rango release inh	SMILES	miR-21 reporter	Rango-impB inh	GLA inh pH 4.5
12%	CC(C)Cn1cnc2c1c(=O)n(CC(=O)N(C)C)c(=O)n2Cc1ccccc1	-1%	1.3%	-11
-4%	Cc1ccc(CCCOC(=O)C[N+]2(C)CCOCC2)cc1	0%	-3.1%	6
8%	O=C(COC(=O)c1ccc(O)cc1)Nc1ccccc1[N+](=O)[O-]	-11%	-5.3%	3
3%	COC(=O)c1onc(-c2c(OC)cc(OC)cc2OC)c1C(=O)OC	0%	1.0%	-18
-7%	O=S(=O)(c1ccc2ccccc2c1)N1CCCCCC1	2%	-3.6%	-6
?	CCc1nc(C)ccc1OCC(=O)O	-3%	3.7%	6
17%	Cc1ccc(CNC(=O)C2CCCN(S(=O)(=O)c3c(C)n[nH]c3C)C2)cc1 (stereo not given)	-1%	-1.0%	10
1%	COc1cc(-c2nc3oc4ccccc4c(=O)c3c(=O)n2Cc2ccco2)cc(OC)c1OC	10%	-0.3%	3
3%	O=C(CN(Cc1ccccc1Cl)C(=O)CCC(=O)Nc1nccs1)NCC1CCCO1 (stereo not given)	11%	-0.6%	nt
0%	Cc1cc(OCCN2CCOCC2)nc2ccccc12	-22%	-0.1%	-5
5%	CCN(C[C@H]1N[C@@](Cc2ccccc2)(C(=O)OC)[C@H]2C(=O)N(Cc3ccccc3)C(=O)[C@@H]12)C(=O)Nc1ccc(C(F)(F)F)cc1	nt	?	nt
-6%	CCOC(=O)c1ccc(NC(=O)CCNS(=O)(=O)c2cccs2)cc1	-2%	-9.2%	nt
?	Cc1cccc(S(=O)(=O)c2c(N)n(Cc3ccco3)c3nc4ccccc4nc23)c1	9%	?	18
2%	Cc1ccc(S(=O)(=O)Nc2nc(C)c(C)s2)cc1	-4%	-0.2%	nt
0%	COc1ccc(NC(=O)CSc2nnc(-c3ccccn3)n2N)cc1Cl	3%	-0.3%	0
1%	Cc1cc(C(=O)CSc2nnc(-c3ccc(F)cc3)o2)c(C)n1CC1COc2ccccc2O1 (stereo not given)	-3%	-0.6%	-2
11%	Cc1c(C)c2ccc(Oc3ccc([N+](=O)[O-])cc3C(F)(F)F)c(C)c2oc1=O	-10%	-1.1%	1
-24%	c1csc(-c2nnc(-c3ccc(N4CCOCC4)cc3)o2)c1	-35%	-3.0%	16
0%	O=C(COC(=O)c1cc[n+]([O-])cc1)Nc1ccc(Cl)cc1C(F)(F)F	nt	3.5%	nt
9%	O=C(CN1CCC(n2nnc3cc(F)ccc32)CC1)NCc1ccco1	-4%	2.2%	-1
-11%	COc1ccc(NC(=O)c2sc3nc(N4CCOCC4)c4c(c3c2N)CCCC4)c(OC)c1	0%	7.6%	nt
9%	CCc1c(C)nc2ncnn2c1N1CCC(C(=O)NCc2ccc3c(c2)OCO3)CC1	-11%	-5.6%	-11
4%	Cc1ccc(-n2cccn2)c(CN2CCCC(C(=O)c3sccc3C)C2)c1 (stereo not given)	?	3.1%	1
-2%	CSc1ccc(CNC(=O)CCn2ccc3cc(S(=O)(=O)N4CCCC4)ccc32)cc1	7%&8%	-0.5%	nt
3%	O=C(/C=C\NCC(=O)c1ccccc1)c1ccc(F)cc1	-28%	?	-24
14%	CCOCCn1c(SCc2ccc(C)cc2)nc2c1c(=O)[nH]c(=O)n2C	-18%	-5.7%	4
-16%	CCOc1ccc2nc(N3CCCC(C(=O)NCCCN4CC(C)CC(C)C4)C3)sc2c1 (stereo not given)	-12%	-0.7%	nt
-5%	CCn1c(SCC(=O)NC2=NCCS2)nnc1C(C)NC(=O)c1ccc(Cl)cc1 (stereo not given)	6%	-0.2%	nt
nt	O=C1c2ccccc2C(=O)N1c1cccc(-c2csc(Nc3ccc4c(c3)OCO4)n2)c1	-40%	nt	-20
-10%	COc1ccc(CCn2c(=O)c3cccnc3n(Cc3ccc([N+](=O)[O-])cc3)c2=O)cc1OC	-5%	?	0
-10%	O=C(NCC1(c2ccccc2)CCCC1)c1ccccc1Br	8%	-1.9%	-16
10%	C=CCNC(=O)C(=O)NCC1CCCN1S(=O)(=O)c1cccs1 (stereo not given)	nt	6.5%	nt
0%	Cc1scc(C(=O)N2CCN(c3ccc(Cl)cc3)CC2)c1C	2%	3.2%	0
-6%	CCN(CC)C(=O)COC(=O)c1cc(-c2ccc(OC)cc2)nc2ccccc12	-1%	?	5
23%	Cc1ccc(C)c(S(=O)(=O)N2CCN(C(=O)CNC(=O)c3ccc4ccccc4c3)CC2)c1	nt	-1.1%	nt
22%	COc1cc2[nH]c(=O)n(CCCCCC(=O)NC3CCCC3)c(=O)c2cc1OC	-1%	-0.6%	nt
5%	Cc1cc(C)n(C(=O)c2ccc([N+](=O)[O-])c(Cl)c2)n1	-1%	-2.7%	1
5%	Cn1c(=O)c2c(nc(CN3CCOCC3)n2CCCO)n(C)c1=O	-1%	-0.1%	2
1%	Cc1cc(F)ccc1NC(=S)NCCc1ccccc1	1%	2.6%	nt
-4%	Cc1ccc(NC(=O)CCC(=O)Nc2ccc(C)cc2)cc1	1%	4.6%	nt
-13%	CCCC(=O)Oc1ccc(C2NC(=O)c3ccccc3O2)cc1 (stereo not given)	-4%	5.6%	nt
5%	C=CCNC(=S)Nc1ccccc1	3%	4.0%	8
16%	COc1ccc(NC(=S)N2CCN(C(=O)C3CCCO3)CC2)cc1 (stereo not given)	-7%	0.4%	nt
-12%	NNc1nc(-c2ccccc2)cc(-c2ccccc2O)n1	18%	2.5%	1
-3%	Cc1ccc2c(c1)N(C(=O)CCC(=O)N1CCCCC1)CCO2	-2%	-0.3%	nt
5%	OCCN1CCOCCN(CCO)CCOCC1	-1%	0.3%	5
-4%	O=C(CN1CCCCCC1)Nc1ccc([N+](=O)[O-])cc1Br	-11%	1.1%	nt
-25%	Cc1ccn2c(=O)nc(SCC(=O)NCCc3ccccc3)nc2c1	nt	-2.5%	nt
-7%	CC(=O)CSc1nnc(-c2ccc(S(=O)(=O)N3CCC(C)CC3)cc2)o1	nt	-6.3%	nt
6%	COCCn1c(SCC(=O)NC2CCCCC2)nc2c(c1=O)SCC2	0%	0.0%	nt

The listing continues:
Rango release inh	SMILES	miR-21 reporter	Rango-impB inh	GLA inh pH 4.5
16%	O=[N+]([O-])c1ccc(CSc2nnc(-c3cccnc3)o2)cc1	-8%	-7.7%	nt
?	COc1cccc(OCCCn2cc(/C=C3/C(=N)N4C=C(C)SC4=NC3=O)c3ccccc32)c1	-29%	?	6
-9%	CC(C)c1ccc(C2(C)NC(=O)N(CC(=O)N3CCN(C(=O)c4cccs4)CC3)C2=O)cc1 (stereo not given)	nt	-0.2%	nt
?	CC1CC1c1ccc(/C=C(\C#N)C(=O)Nc2cccc(Cl)c2Cl)o1 (stereo not given)	-17%	?	1
-11%	CC(C)C[C@H]1CN=C(Nc2ccccc2)N1CCC1CCCC1	16%	-1.9%	nt
1%	O=C(CC(O)c1ccncc1)c1ccccc1O (stereo not given)	nt	-3.4%	nt
-13%	NS(=O)(=O)c1ccc(NCc2ccccc2OCc2ccc(F)cc2)cc1	13%	-4.6%	-3
10%	Cc1ccc(NC(=O)C2CC(=O)N(c3ccc4c(c3)OCCO4)C2)cc1S(=O)(=O)N1CCCCCC1 (stereo not given)	nt	-1.9%	nt
17%	CCOC(=O)C1CCN(C(=O)c2cc3cc4ccc(OC)cc4nc3o2)CC1	-33%	0.9%	nt
0%	Cn1c(=O)n(CC(=O)NC2CCCCC2)c(=O)c2ccccc21	-9%	7.4%	1

Structural class, the compounds so far with a furan ring, fused or not.
Rango release inh	SMILES	miR-21 reporter	Rango-impB inh	GLA inh pH 4.5
-6%	S=C(c1ccc(-c2ccc(Cl)cc2Cl)o1)N1CCCCC1	-54%	1.6%	-5
1%	COc1cc(-c2nc3oc4ccccc4c(=O)c3c(=O)n2Cc2ccco2)cc(OC)c1OC	10%	-0.3%	3
?	Cc1cccc(S(=O)(=O)c2c(N)n(Cc3ccco3)c3nc4ccccc4nc23)c1	9%	?	18
9%	O=C(CN1CCC(n2nnc3cc(F)ccc32)CC1)NCc1ccco1	-4%	2.2%	-1
?	CC1CC1c1ccc(/C=C(\C#N)C(=O)Nc2cccc(Cl)c2Cl)o1 (stereo not given)	-17%	?	1
17%	CCOC(=O)C1CCN(C(=O)c2cc3cc4ccc(OC)cc4nc3o2)CC1	-33%	0.9%	nt

(further entries)
Rango release inh	SMILES	miR-21 reporter	Rango-impB inh	GLA inh pH 4.5
-25%	FC(F)Oc1ccccc1NC(=S)Nc1cccnc1	1%	-2.0%	8
10%	Cc1ccc(C(C)NC(=O)c2c(-c3ccccc3)noc2C)cc1C (stereo not given)	0%	0.0%	nt
-4%	C[C@@H](OC(=O)N(C)Cc1ccccc1)[C@H]1O[C@]2(C)CCCC[C@H]1O2	nt	-0.8%	nt
-5%	O=C(NCCOc1ccc(F)cc1)C1CCN(S(=O)(=O)c2ccccc2)CC1	5%	0.4%	nt
-3%	Clc1cccc(Sc2ccc(-c3ccccn3)s2)c1	-6%	1.3%	-8
2%	Cc1cccnc1NC(=O)Nc1cccc(Cl)c1	-33%	2.8%	nt
-14%	COc1cccc(C(=O)NC2C(=O)N3C(C(=O)O)=C(COC(C)=O)CSC23)c1 (stereo not given)	nt	-2.8%	nt
0%	COC(=O)c1ccc(NC(=O)c2cccc(C)c2[N+](=O)[O-])cc1	-32%	1.8%	-2
3%	CC(C)c1ccc(C(=O)NCc2ccc(Cl)cc2)cc1	-58%	-5.3%	5
2%	CNC(=S)N(CCc1c(C)[nH]c2ccc(Cl)cc12)Cc1cccnc1	6%	1.1%	nt
10%	Cc1ccc2c(c1)NC(=O)C(CC(=O)NCCCN1CCCCC1C)O2 (stereo not given)	-1%	-2.9%	-11
-12%	COCCOc1ccc(C(F)(F)F)cc1NC(=O)COC(=O)C1=COCCO1	nt	3.5%	nt
6%	Cn1c(N2CCN(C(=O)NC34CC5CC(CC(C5)C3)C4)CC2)nc2ccccc21	2%	-0.3%	-3
